Assay outcomes from PubChem BioAssay.
Sa growth 42C: S. aureus growth inhibition at 42 and 30 °C, primary screen, LtaS inhibitor project, RN4220, two temperatures; OD600, 20 h, 42 °C; active compounds read low; relative growth, % (concentration not given with the values); 170,000 tested, 0.53% active; AID 720641, 2013;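 active means growth at 42 °C up to 50% and 20 or more points under that at 30 °C, or under 10% at both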;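 further: 300 nL library stock went into each well; scaled to the means of positive and negative controls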
GIV-Gai inh: inhibitors of GIV peptide binding to Galpha-i3, primary screen, biochemical, fluorescence polarization, FITC-GIV GBA peptide, rat Galphai3 | Guanine nucleotide-binding protein G(i) subunit alpha-3 (Rattus norvegicus), P08753 | 90 min; active compounds read low; scaled: aluminum fluoride 0%, vehicle 100% | percent of control (FP), % (test concentration not listed) | 210,000 tested, 0.42% active;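 active means replicate mean at 85% of control or lower, very high polarization wells dropped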;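 further: lower values mean more displacement of the GIV peptide from Galpha-i3; wells of about 15 µL received 100 nL stock; the first replicate is given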
Target sequence (P08753 whole entry, looked up): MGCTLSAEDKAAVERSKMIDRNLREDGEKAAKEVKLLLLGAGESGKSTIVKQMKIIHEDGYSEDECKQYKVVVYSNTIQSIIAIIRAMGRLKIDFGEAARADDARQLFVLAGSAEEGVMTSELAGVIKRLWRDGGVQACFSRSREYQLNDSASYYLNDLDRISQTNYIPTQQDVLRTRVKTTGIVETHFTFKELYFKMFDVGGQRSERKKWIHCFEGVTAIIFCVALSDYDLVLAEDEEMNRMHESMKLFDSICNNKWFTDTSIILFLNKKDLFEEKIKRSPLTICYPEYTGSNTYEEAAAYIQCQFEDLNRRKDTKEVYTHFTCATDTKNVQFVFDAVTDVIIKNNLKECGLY
HCMV NEC inh: inhibitors of HCMV UL50-UL53 interaction, biochemical, HTRF | HCMV UL50-UL53 nuclear egress complex (human cytomegalovirus) | normalized percent inhibition | inhibition, % (concentration not given with the values) | 190,000 tested, 0.15% active;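 active means both replicates at 50% or more, plus weaker picks with an unusually low signal ratio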;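 further: stock transfer was 100 nL into about 20 µL; 0% = negative control wells and 100% = wells with untagged competitor protein; inactives centre near -12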
Sa growth 42C second temp: further read-out of Sa growth 42C, marked with its call; relative growth, %; measured here: growth at 30 °C;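 optical density after 20 h as mean of two plates; 100% = untreated growth and lower means inhibition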
* hit, by the source's call; · = no result given; & = joins results of further samples.

entry	structure	Sa growth 42C	Sa growth 42C second temp	GIV-Gai inh	HCMV NEC inh
1	COC(=O)c1sccc1NC(=O)CSc1nccn2nc(-c3ccc(C)cc3)cc12	·	·	104	-8
2	O=C(Cn1nc(Cc2ccncc2)c2ccccc2c1=O)N1CCCC1	83	86	100	-25
3	COc1ccc(NC(=O)Nc2cn(CC(C)C)c(=O)c3ccccc23)c(OC)c1	104	84	100	·
4	Cc1ccc(C)c(N2CCN(C(=O)C3CCN(S(=O)(=O)c4cn(C)cn4)CC3)CC2)c1	100	89	99	·
5	CCc1cccc(-n2c(=O)c3cccnc3n2CC(=O)NCc2ccccc2Cl)c1	92	87	105	·
6	N#Cc1c(N)nc2c(c1-c1ccccc1)CCC2	61	86	·	-9
7	Cc1ccc(-n2ncc3c(Nc4ccc(Oc5ccccc5)cc4)ncnc32)cc1	108	88	99	·
8	Cc1ccc(-c2nc(-c3ccc4c(c3)[nH]c(=O)c(=O)n4C(C)C)no2)c(C)c1	·	·	102	-14
9	COC(=O)c1ncn2c1C(=O)N(c1ccc(OC)c(OC)c1)C(C)(C(=O)NC1CCCC1)C2 (stereo not given)	·	·	107	-4
10	C=CCn1c(SCC(=O)N2c3ccccc3C(C)(c3ccccc3)CC2(C)C)nnc1-c1ccncc1 (stereo not given)	·	·	101	-9
11	c1ccc(Cn2c(SCC3CCCCO3)nnc2-c2ccco2)cc1 (stereo not given)	72	87	·	-4
12	Cc1ccc(NC(=O)CSc2nc3ccsc3c(=O)n2Cc2ccccc2F)cc1Cl	102	91	105	·
13	Nc1ccc2c(c1)C(=O)N(CCCC(=O)O)C2=O	84	82	102	-54
14	Cc1ccc(NC(=O)Nc2nnc(N3C(C)CCCC3C)s2)cc1C (stereo not given)	101	103	105	·
15	CCCn1nnc(NCc2ccc(-c3cccc(Cl)c3C)o2)n1	·	·	97	-9
16	Cc1ccc(N(C(C)C(=O)N(C)C)S(C)(=O)=O)cc1 (stereo not given)	104	89	107	-8
17	CC(C)NC(=O)c1ccc2c(c1)CCN2S(C)(=O)=O	·	·	101	-5
18	CN(C)CCNC(=O)c1ccc2c(=O)n(Cc3ccc4c(c3)OCO4)c(=S)[nH]c2c1	136	82	105	·
19	N#Cc1ccccc1S(=O)(=O)N1CCN(Cn2c(Cc3ccccc3)nc3ccccc32)CC1	80	96	·	-38
20	CCn1cnc(S(=O)(=O)N2CCCC(C(=O)N3CCN(C)CC3)C2)c1 (stereo not given)	·	·	98	-2

Four consecutive compounds out of the list so far, quoted:
entry	structure	Sa growth 42C	Sa growth 42C second temp	GIV-Gai inh	HCMV NEC inh
17	CC(C)NC(=O)c1ccc2c(c1)CCN2S(C)(=O)=O	·	·	101	-5
18	CN(C)CCNC(=O)c1ccc2c(=O)n(Cc3ccc4c(c3)OCO4)c(=S)[nH]c2c1	136	82	105	·
19	N#Cc1ccccc1S(=O)(=O)N1CCN(Cn2c(Cc3ccccc3)nc3ccccc32)CC1	80	96	·	-38
20	CCn1cnc(S(=O)(=O)N2CCCC(C(=O)N3CCN(C)CC3)C2)c1 (stereo not given)	·	·	98	-2

(more compounds)
entry	structure	Sa growth 42C	Sa growth 42C second temp	GIV-Gai inh	HCMV NEC inh
21	O=C1CN(C(=O)Cc2ccccc2)C(c2ccc(F)cc2)c2cc(Br)ccc2N1 (stereo not given)	79	84	100	-18
22	CCOC(=O)C1CCN(c2c(N3CCC(C(=O)OCC)CC3)c(=O)c2=O)CC1	·	·	96	-91
23	CCOc1ccccc1NC(=O)C1CCN(S(=O)(=O)c2cc(-c3noc(C)n3)sc2C)CC1	·	·	100	-8
24	C=CCn1c(SCC(=O)NCCO)nc2sc3c(c2c1=O)CCCC3	·	·	107	-16
25	CC(C)c1cccc2c1OC(C(C)C)C(=S)N2CC(=O)O (stereo not given)	111	95	98	-27
26	COc1ccc(-c2nc(CSCC(=O)N(C)Cc3ccccc3)c(C)o2)cc1OC	107	81	103	·
27	Cc1cc(C)c2c(N)c(C(=O)Nc3ccccc3C(F)(F)F)sc2n1	132	88	98	·
28	CC1CCC(NC(=O)c2ccc3c(c2)N(Cc2ccccc2F)C(=O)c2ccccc2S3=O)CC1 (stereo not given)	103	96	108	-15
29	Cc1ccc(-n2c(=O)c3c4c(sc3n(CC(N)=O)c2=O)CCCCC4)cc1C	115	88	105	-3
30	Cc1cc(C)c2c(CC(=O)NN3CCN(C)CC3)coc2c1	121	100	107	-28
31	Cc1ccc(CNC(=O)c2ccc(CN3CCCn4nc(C)cc43)cc2)cc1	·	·	106	-10
32	Cc1ccc(S(=O)(=O)c2nnn3c2nc(NCc2ccc4c(c2)OCO4)c2sccc23)cc1	103	98	107	·
33	CCOC(=O)CC1=CC(SCc2ccc(C)cc2)=Nc2ccccc2N1	·	·	103	-21
34	CCCS(=O)(=O)NCc1ccc2c(c1)N(C(=O)c1ccccc1)CC2	·	·	97	13
35	C=CCn1c(COc2ccc(OC)cc2)nnc1SC(C(=O)NC(=O)NC)c1ccccc1 (stereo not given)	96	101	·	-8
36	O=C(C(Cc1ccccc1)n1cccc1)N1CCCC1 (stereo not given)	95	84	101	·
37	COc1ccccc1N1CCN(c2ncnc3c2c(-c2ccccc2)cn3-c2cccc(Cl)c2)CC1	110	84	105	·
38	COc1ccc(NC(=O)C(c2ccccn2)N(C(C)=O)c2ccc(C)cc2)cc1 (stereo not given)	84	86	103	-19
39	O=C(NCc1noc(-c2ccco2)n1)c1coc(C2CC2)n1	·	·	108	-13
40	CCCN1CCN(CC2=C(C(=O)OCC)C(c3ccc(OC(C)C)cc3)NC(=O)N2)CC1 (stereo not given)	115	87	105	-15
41	CCOC(=O)C1=C(C)OC(N)=C(C#N)C1c1ccccc1OC (stereo not given)	·	·	98	-29
42	c1ccc(NCn2nnc3ccccc32)cc1	95	94	·	-35
43	COc1ccc2c(c1)c1c(c(=O)n(-c3ccc(F)c(Cl)c3)c(=O)n1Cc1ccccc1C)n2C	88	83	108	·
44	CCCN(CCC)S(=O)(=O)c1ccc(C(=O)Nc2ccc3nc(NC(=O)c4ccc(S(=O)(=O)N(CCC)CCC)cc4)sc3c2)cc1	·	·	104	-7
45	CCOC(=O)c1c(C)c(C(=O)Nc2ccc(C(C)C)cc2)c(C)n1C	112	84	105	·
46	O=C(CN1c2ccc(Br)cc2-c2ccccc2S1(=O)=O)NCCC1=CCCCC1	·	·	101	-14
47	Cc1noc(C(F)(F)F)c1C(=O)O/N=C(\N)c1ccc(C(F)(F)F)cc1	101	90	106	-10
48	COc1ccc(OC)c(N=C2SCCCN2C(=O)c2cc(=O)[nH]c3ccccc23)c1	99	90	·	-25
49	CCOc1ccc(-n2cc(-c3ccccc3)c3c(NC4CCCC4)ncnc32)cc1	107	100	109	·
50	COCCCNc1nc2ccccc2[nH]c1=O	104	93	·	-35
51	CN(CC(=O)Nc1ccc(N2CCOCC2)cc1)c1nc(-c2ccccc2)nc2ccccc12	106	88	·	-3
52	Cc1nn(-c2ccc(Cl)nn2)c(C)c1Cl	·	·	109	-40
53	CCOC(=O)c1[nH]c(CBr)c(C(=O)OCC)c1C	113	85	·	-32
54	O=C(CCCn1c(=O)c2cccn2c2ccc(F)cc21)NCc1cccnc1	·	·	99	-12
55	O=C(Cn1nc(-c2ccccc2)c2ccccc2c1=O)Nc1cccnc1	115	102	99	9
56	Cc1cc(F)ccc1NS(=O)(=O)c1cn(C)c(C)n1	·	·	106	2
57	CCOC(=O)c1c(C)[nH]c(CN(Cc2ccccc2)C(=O)Nc2ccccc2OCC)c1C	·	·	98	-26
58	CCC(C)NS(=O)(=O)c1c[nH]c(C(=O)OC)c1 (stereo not given)	86	85	98	-17
59	CC(C)Cn1cc(NC(=O)N2CCN(c3ccccc3F)CC2)c2ccccc2c1=O	96	88	101	·
60	Fc1ccc(OC2OCCOC2Oc2ccc(F)cc2)cc1 (stereo not given)	96	88	·	-16
61	CCC1(C)Cc2c(sc3nc4n(c(=O)c23)CCCS4)CO1 (stereo not given)	112	104	110	-21
62	Cc1ccc(CNC(=O)c2sc3nc[nH]c(=O)c3c2C)cc1	98	105	112	·
63	Fc1c(F)c(-n2cccn2)c(F)c(F)c1-c1c(F)c(F)c(-n2cccn2)c(F)c1F	104	84	107	2
64	O=C(NCCC1=CCCCC1)C1CCN(C(=O)c2cccn2-c2cccnc2)CC1	·	·	107	-19
65	CCCOc1ccc2oc(=O)c3c(c2c1)CCCN3C(=O)CN1CC(C)CC(C)C1 (stereo not given)	89	90	99	-15
66	O=C(NCCC1=CCCCC1)c1nc(Nc2ccc(F)cc2)c2ccccc2n1	·	·	101	-4
67	O=C(Cn1ccc(C(F)(F)F)n1)c1ccc(Cl)cc1	87	80	97	-20
68	COCCCNC(=O)c1nn(C)c2c1CS(=O)(=O)c1ccccc1-2	88	76	104	0
69	O=C(c1cccnc1NCCc1ccccc1)N1CCCC1	107	79	103	21
70	Cc1ccc(OCC(=O)O)c2c1CCC2	104	98	98	4

The results go on:
entry	structure	Sa growth 42C	Sa growth 42C second temp	GIV-Gai inh	HCMV NEC inh
71	Cn1c(-c2ccc(S(=O)(=O)N3CCCC3)cc2)csc1=Nc1ccc(Cl)c(Cl)c1	92	90	104	-83
72	O=C(Cn1nc2n(CCc3ccccc3)c(=O)c3ccccc3n2c1=O)c1ccccc1	·	·	100	-17
73	CCOC(=O)c1cc(=O)c2ccccc2[nH]1	·	·	101	-79
74	COc1ccc(-n2nc3c(N4CCC(C(=O)NCc5cccc(F)c5)CC4)nnc(C)c3c2C)cc1	94	94	101	·
75	CN(N)c1nc(-c2ccccc2)cc(-c2ccccc2)n1	133	97	108	5
76	COc1ccc(N=Cc2ccc3c(c2)OCCO3)cc1	86	76	·	-7
77	O=C(CSc1ccc(Br)cc1)c1ccc(Cl)s1	97	66	·	-22
78	COc1ccc(C2C3=C(CC(c4ccc(Cl)cc4)CC3=O)Nc3onc(C)c32)cc1 (stereo not given)	·	·	107	-13
79	Cn1cc(S(=O)(=O)N2CCOCC2)cc1C(=O)N1CCN(c2cccc(C(F)(F)F)c2)CC1	95	83	108	-27
80	Cc1cccc(OCC(=O)N2CCCc3ccccc32)c1	111	87	101	·
81	Cc1onc(-c2ccccc2Cl)c1C(=O)Nc1cc2c(cc1N1CCCCC1)n(C)c(=O)n2C	·	·	109	1
82	COCc1nc2c([nH]1)c(=O)n(C)c(=O)n2CC(C)C	·	·	103	-6&-7&-28
83	Nc1ccccc1CN1CCCC1	94	84	99	0
84	COc1ccc(-c2nc(C)c(CCNC(=O)C(=O)Nc3ccccc3F)s2)cc1	105	101	105	·
85	Cc1c(C(=O)O)cnn1-c1ccccc1	·	·	101	-29
86	c1nnc(-c2ccc3c(c2)OCO3)o1	78	86	·	-7
87	Cc1ccc(CCNC(=O)c2cn(C)c3ccc(S(=O)(=O)N4CCC(C)CC4)cc3c2=O)cc1	83	86	102	-26
88	NC(=O)C1CCN(c2cc(C(=O)O)c3cc(NC(=O)c4ccc(Br)cc4)ccc3n2)CC1	·	·	110	-36
89	Cc1ccc(-c2ccc(N3CCCC(C(=O)NCc4ccc(C(C)C)cc4)C3)nn2)cc1 (stereo not given)	·	·	102	-25
90	NC1=NC2(CCSC2)n2c(nc3ccccc32)N1 (stereo not given)	91	86	·	-17
91	CC(=O)NCCN1C(=O)S/C(=C\c2cccs2)C1=O	107	97	·	-111
92	Cc1[nH]c2ccccc2c1CCN1C(=O)CCC1=O	80	85	·	-14
93	N#C/C(=C\c1ccc(-c2ccc(S(=O)(=O)N3CCOCC3)cc2)o1)C(=O)NC1CC1	96	92	·	-14
94	CCOC(=O)c1c(NC(C)=O)sc2c(NC(C)=O)cccc12	98	91	107	-9
95	O=C(CCC(=O)N1CCc2ccccc2C1)Nc1nc(-c2cc3cc(Br)ccc3oc2=O)cs1	96	78	105	-2
96	CCC(C(=O)N1CCN(Cc2ccccc2)CC1)N1CCN(Cc2ccc(F)cc2)C(=O)C1=O (stereo not given)	·	·	105	-31
97	Cc1ccc(C(=O)c2cn(CC(=O)NCc3ccccc3Cl)c3nc(C)ccc3c2=O)cc1	100	81	113	·
98	O=C(Cn1cnc2c(oc3ccccc32)c1=O)Nc1ccc(OC(F)(F)F)cc1	111	97	108	·

Random draw from the library (roughly 0.79% active in at least one column).
